Ecoli rRNA inh = reduced GFP signal of wild-type E. coli, primary screen, bacterial rRNA inhibitor project, GFP/RFP fluorescence, OD600, single point. AID 720706, 2013. E. coli WT GFP vs humanized-ribosome RFP mutants, 24 h; active compounds read low; DMSO median 0, no signal -100. GFP signal change (wild-type ribosome), % (no concentration beside the values). 350,000 compounds, 1.6% hits;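 active = significant combined selectivity score with lowered wild-type GFP, culture density cut under 30%, mutant RFP and density less affected; inactive = any of these conditions unmet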; note: one replicate is shown; some compounds called inactive have numbers as strong as hits
Ecoli rRNA inh OD600 = also measured in Ecoli rRNA inh; calls as there; OD600 change, %; measured here: OD600 growth;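 optical density of the mix in the first replicate; 0 = DMSO median and -100 = no signal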
Ecoli rRNA inh RFP = further read-out of Ecoli rRNA inh, marked with its call; RFP signal change, %; measured here: RFP humanized mutant strains;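 first replicate; 0 = DMSO median and -100 = no signal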
Starred values were filed as active, the others as inactive. Only part of the results is shown, so the mix of outcomes need not match the whole.

SMILES | Ecoli rRNA inh | Ecoli rRNA inh OD600 | Ecoli rRNA inh RFP
CO[C@@H]1CN(C)C(=O)c2cc(NC(=O)C3CC3)ccc2OC[C@H](C)N(Cc2ccc(F)cc2)C[C@@H]1C | 0.5 | 1.8 | 2.6
COC(=O)C[C@H]1CC[C@@H]2[C@@H](COc3ccc(NC(=O)Nc4c(C)noc4C)cc3C(=O)N2C)O1 | 5.6 | 14.1 | 0.2
C[C@H](CO)N1C[C@H](C)[C@@H](CN(C)Cc2ccccc2)Oc2c(NS(=O)(=O)c3ccc(Cl)cc3)cccc2C1=O | -2.8 | 3.6 | 0.2
C[C@H](CO)N1C[C@H](C)[C@H](CN(C)S(=O)(=O)c2ccc(F)cc2)Oc2c(NS(=O)(=O)c3ccc(Cl)cc3)cccc2C1=O | -1.1 | -5.2 | 2.3
COc1ccc2c3c([nH]c2c1)[C@@H](CO)N(Cc1ccc(F)cc1)CC31CN(Cc2ccccn2)C1 | 1.2 | 2.5 | 5.9
COCC#Cc1ccc([C@@H]2[C@H](CO)N3CCCCN(Cc4ccncc4)C[C@@H]23)cc1 | 2.1 | 23.0 | -2.9
COCC(=O)N(C)C[C@@H]1Oc2cc(C#CC(C)(C)O)ccc2S(=O)(=O)N([C@@H](C)CO)C[C@@H]1C | 3.9 | 8.8 | -3.9
O=C(Cc1cccnc1)N[C@H]1CC[C@H](CCn2cc(Cc3ccccc3)nn2)O[C@@H]1CO | 2.4 | 6.2 | -1.8
Cc1ccc(-c2ccc(CN3C(CC(C)C)C(=O)N(Cc4cn(CCC5OCCO5)nn4)CCS3(=O)=O)cc2)cc1 (stereo unspecified) | 4.5 | 6.9 | 2.1
C[C@@H]1CCCCO[C@H](CN(C)C(=O)CCC(F)(F)F)[C@H](C)CN([C@@H](C)CO)C(=O)c2cc(NC(=O)Nc3ccc4c(c3)OCO4)ccc2O1 | -3.6 | -5.0 | 1.6
CCOC(=O)[C@]12CCC=C1N(Cc1ccc3c(c1)OCO3)C(=O)[C@H](CC(=O)NCc1cccc(C(F)(F)F)c1)C2 | 1.4 | -1.2 | 0.4
C[C@H](NC(=O)c1ncn2c1C(=O)NC[C@H]2C)c1ccccc1 | 2.4 | 10.8 | -7.8
COc1ccc(NC(=O)C[C@H]2C(=O)N(c3ccc(Br)cc3)C[C@@H]2CSC)cc1 | -10.3 | -12.0 | -2.7
CN1CCN(C(=O)C[C@H]2C=C[C@H](NC(=O)c3ccc4c(c3)OCO4)[C@H](CO)O2)CC1 | 2.9 | 3.6 | 0.0
C[C@H](CO)N1C[C@H](C)[C@H](CN(C)CC2CCCCC2)OCCCC[C@H](C)Oc2ccc(NC(=O)c3ccncc3)cc2C1=O | -4.3 | 0.3 | -1.7
Cc1cc(NS(C)(=O)=O)c(=O)n(Cc2cccc(C(F)(F)F)c2)c1 | -0.5 | -5.3 | 1.9
C[C@H]1CN([C@@H](C)CO)C(=O)c2cc(NS(=O)(=O)c3ccc(F)cc3)ccc2O[C@H]1CN(C)C(=O)Nc1cccc2ccccc12 | 2.2 | 0.4 | 3.5
CO[C@@H]1CN(C)C(=O)c2ccc(NC(=O)C3CCC3)cc2OC[C@H](C)N(Cc2ccncc2)C[C@H]1C | -2.7 | -5.1 | -1.2
C[C@H](CO)N1C[C@H](C)[C@@H](CN(C)C(=O)Nc2ccc3c(c2)OCO3)Oc2ccc(N(C)C)cc2C1=O | 1.5 | 9.7 | -3.6
O=C(c1ccccn1)N1CC2(C1)[C@H](c1ccccc1)[C@H](CO)N2C(=O)C1CCC1 | -0.9 | -3.1 | -3.7
CNC(=O)C[C@H]1C(=O)N(Cc2ccccc2)C[C@@H]1C | -9.6 | 16.4 | -8.1
C[C@@H]1CCCCO[C@H](CN(C)S(=O)(=O)c2ccc(Cl)cc2)[C@@H](C)CN([C@H](C)CO)C(=O)c2cc(NC(=O)c3ccccc3)ccc2O1 | -1.1 | -8.4 | 0.2
C[C@@H]1CCCCO[C@H](CN(C)C(=O)Nc2ccccc2)[C@H](C)CN([C@H](C)CO)C(=O)c2cc(NC(=O)Cc3ccccc3)ccc2O1 | -0.1 | -5.1 | -1.9
CC(=O)Nc1cccc(Nc2cc(C)nn2C)c1 | 4.9 | 3.3 | -1.5
CO[C@H]1CN(C)C(=O)c2cc(NC(=O)C3CC3)ccc2OC[C@@H](C)N(C(=O)NC(C)C)C[C@H]1C | 2.1 | 9.1 | -2.0
C[C@H](CO)N1C[C@H](C)[C@H](CN(C)Cc2ccncc2)Oc2ccc(NC(=O)Nc3ccc4c(c3)OCO4)cc2C1=O | -1.4 | 4.9 | -0.7
O=C(c1cccc(F)c1)N1CC(=O)N2[C@@H](CO)[C@H](c3ccc(C#Cc4ccc(F)cc4)cc3)[C@@H]2C1 | -6.1 | -53.1 | 33.1
CCOC(=O)C1=CCN(S(=O)(=O)c2ccccc2Br)C1c1cccc(Cl)c1 (stereo unspecified) | -8.7 | -29.5 | -10.1
O=C(C[C@H]1C[C@H]2c3cc(NC(=O)c4ccc5c(c4)OCO5)ccc3O[C@H]2[C@@H](CO)O1)NCc1ccc(Cl)cc1 | 3.5 | 2.8 | 2.2
NCC[C@H]1CC[C@@H](NC(=O)C2CCCC2)[C@H](CO)O1 | 0.5 | 0.3 | -3.5
C[C@@H]1CN([C@@H](C)CO)S(=O)(=O)c2ccc(C3=CCCC3)cc2O[C@@H]1CN(C)S(=O)(=O)c1ccc(F)cc1 | 6.7 | 1.5 | 0.3
Cc1ccccc1-n1nc2c(c1NC(=O)C1CC1)CS(=O)(=O)C2 | 4.1 | 7.7 | 1.0
CCS(=O)(=O)Nc1ccc2c(c1)C(=O)N(C)[C@@H]1CC[C@H](CC(=O)OC)O[C@@H]1CO2 | 0.0 | 0.5 | 0.3
Cc1ccc([C@@H]2CC(=O)[C@@H]3CN(S(=O)(=O)c4ccc(C)cc4)[C@H](c4ccccc4)C[C@@H]3N2S(=O)(=O)c2ccc(Cl)cc2)cc1 | 10.2 | 7.5 | 0.4
C/C=C/c1ccc2c(c1)O[C@@H](CN(C)CC1CC1)[C@@H](C)CN([C@H](C)CO)S2(=O)=O | 5.4 | 4.7 | -2.8
O=C(C[C@H]1CC[C@@H](NS(=O)(=O)c2ccccc2F)[C@@H](CO)O1)NCCCN1CCOCC1 | 2.1 | 12.7 | -2.0
COc1ccc(S(=O)(=O)N(C)C[C@@H]2OCCCC[C@H](C)Oc3ccc(NS(=O)(=O)c4ccc(Cl)cc4)cc3C(=O)N([C@@H](C)CO)C[C@H]2C)cc1 | -3.6 | -0.6 | -4.5
C[C@H]1CCCCO[C@@H](CN(C)C)[C@@H](C)CN([C@@H](C)CO)C(=O)c2cc(NC(=O)CCCN(C)C)ccc2O1 | -0.8 | 4.7 | -4.5
COc1ccc(NC(=O)N(C)C[C@@H]2Oc3ccc(NC(=O)Nc4ccc(C(F)(F)F)cc4)cc3CC(=O)N([C@H](C)CO)C[C@@H]2C)cc1 | -1.5 | -9.6 | 1.2
CC(C)NC(=O)N(C)C[C@@H]1OCCCC[C@@H](C)Oc2ccc(NS(=O)(=O)c3cccs3)cc2C(=O)N([C@@H](C)CO)C[C@H]1C | -1.5 | -5.3 | 0.5
O=C(Nc1ccc(F)cc1)N[C@@H]1CC[C@H](CCNS(=O)(=O)c2ccccc2F)O[C@@H]1CO | 1.0 | 2.1 | -2.0
C[C@@H]1CN([C@H](C)CO)C(=O)Cc2cc(N(C)C)ccc2O[C@H]1CN(C)C(=O)Nc1cccc2ccccc12 | -1.9 | -4.9 | 0.2
CCCNC(=O)N1CC2(CN(C(=O)C3CCC3)C2)c2c([nH]c3cc(OC)ccc23)[C@@H]1CO | -1.9 | 2.4 | -4.2
CCC(=O)N1C[C@@H](C)[C@@H](OC)CN(C)C(=O)c2ccc(NC(=O)COC)cc2OC[C@H]1C | 0.9 | 5.8 | -1.3
Cc1ccc(S(=O)(=O)N(C)C[C@H]2Oc3c(NC(=O)NC4CCCCC4)cccc3C(=O)N([C@H](C)CO)C[C@H]2C)cc1 | -0.6 | -8.3 | 0.0
COc1ccc(NC(=O)N(C)C[C@H]2OCCCC[C@@H](C)Oc3ccc(N(C)C)cc3C(=O)N([C@@H](C)CO)C[C@H]2C)cc1 | 0.4 | 2.7 | 3.8
O=C(Nc1ccc(F)cc1)N1C[C@@H]2[C@H](c3ccccc31)[C@H](CO)N2Cc1cocn1 | -2.6 | -20.4 | -1.0
C[C@H]1CCCCO[C@@H](CN(C)Cc2ccc3c(c2)OCO3)[C@@H](C)CN([C@@H](C)CO)C(=O)c2cc(NC(=O)Nc3ccc(F)cc3)ccc2O1 | -6.1 | -39.8 | 31.1
CCCNC(=O)N1[C@@H](C#N)[C@@H](c2ccc(C#Cc3ccc(F)cc3)cc2)[C@@H]1CO | -46.2 | -73.5 | -4.5
C[C@H](CO)N1C[C@H](C)[C@H](CN(C)C(=O)Nc2ccc3c(c2)OCO3)Oc2ccc(NC(=O)Nc3ccc4c(c3)OCO4)cc2C1=O | -0.4 | 7.2 | 0.1
C[C@H](CO)N1C[C@H](C)[C@H](CN(C)Cc2ccccn2)Oc2cc(-c3cccnc3)ccc2S1(=O)=O | 2.8 | 0.6 | 0.6
C[C@H](O)C#Cc1ccc([C@@H]2[C@H](CO)N3CCCCN(C(=O)Nc4ccccc4)C[C@@H]23)cc1 | 1.0 | 2.0 | 2.9
O=S(=O)(c1ccc(F)cc1)N1CCCCN2[C@H](CO)[C@@H](c3ccc(-c4cncnc4)cc3)[C@H]2C1 | -5.2 | -9.5 | -6.4
CCC(=O)Nc1ccc2c(c1)C(=O)N(C)C[C@@H](OC)[C@@H](C)CN(C(=O)CN(C)C)[C@H](C)CO2 | 2.2 | -4.6 | 0.8
COc1ccc(NC(=O)N(C)C[C@H]2OCCCC[C@H](C)Oc3ccc(NS(C)(=O)=O)cc3C(=O)N([C@@H](C)CO)C[C@@H]2C)cc1 | -4.0 | 2.0 | -1.2
CN(CC(=O)N/N=C/c1ccc(F)cc1)S(=O)(=O)c1ccccc1 | 0.7 | 7.5 | -0.8
C[C@@H]1CN([C@@H](C)CO)C(=O)c2cc(NC(=O)Nc3ccc(C(F)(F)F)cc3)ccc2O[C@@H]1CN(C)S(=O)(=O)c1ccc(Cl)cc1 | 1.7 | -3.5 | -0.4
O=C(O)C[C@H]1C=C[C@@H](NC(=O)c2ccccc2F)[C@H](CO)O1 | 1.9 | 2.6 | -2.2
CCc1nc2c(OCc3ccc(F)cc3)cccn2c1N(C)C(=O)CC(C)C | -18.8 | -35.4 | -0.4
Cc1ccc(S(=O)(=O)N[C@@H]2C=C[C@@H](CC(=O)NC3CCCCC3)O[C@H]2CO)cc1 | 1.5 | -3.4 | -0.3

9 structures already listed, ordered by molecular weight, smallest number first:
SMILES | Ecoli rRNA inh | Ecoli rRNA inh OD600 | Ecoli rRNA inh RFP
CC(=O)Nc1cccc(Nc2cc(C)nn2C)c1 | 4.9 | 3.3 | -1.5
CNC(=O)C[C@H]1C(=O)N(Cc2ccccc2)C[C@@H]1C | -9.6 | 16.4 | -8.1
Cc1cc(NS(C)(=O)=O)c(=O)n(Cc2cccc(C(F)(F)F)c2)c1 | -0.5 | -5.3 | 1.9
O=C(Nc1ccc(F)cc1)N1C[C@@H]2[C@H](c3ccccc31)[C@H](CO)N2Cc1cocn1 | -2.6 | -20.4 | -1.0
C/C=C/c1ccc2c(c1)O[C@@H](CN(C)CC1CC1)[C@@H](C)CN([C@H](C)CO)S2(=O)=O | 5.4 | 4.7 | -2.8
O=C(Nc1ccc(F)cc1)N[C@@H]1CC[C@H](CCNS(=O)(=O)c2ccccc2F)O[C@@H]1CO | 1.0 | 2.1 | -2.0
CO[C@H]1CN(C)C(=O)c2cc(NC(=O)C3CC3)ccc2OC[C@@H](C)N(C(=O)NC(C)C)C[C@H]1C | 2.1 | 9.1 | -2.0
COCC(=O)N(C)C[C@@H]1Oc2cc(C#CC(C)(C)O)ccc2S(=O)(=O)N([C@@H](C)CO)C[C@@H]1C | 3.9 | 8.8 | -3.9
C[C@H](CO)N1C[C@H](C)[C@H](CN(C)Cc2ccncc2)Oc2ccc(NC(=O)Nc3ccc4c(c3)OCO4)cc2C1=O | -1.4 | 4.9 | -0.7

(list continues)
SMILES | Ecoli rRNA inh | Ecoli rRNA inh OD600 | Ecoli rRNA inh RFP
CC(C)N(C[C@@H]1[C@@H](c2ccccc2)[C@H](CO)N1S(C)(=O)=O)C(=O)CN(C)C | 2.3 | 3.8 | -0.8
O[C@@H]1CN(Cc2cccs2)[C@@H](c2ccc(Cl)cc2)C[C@H]1n1cc(C2CC2)nn1 | -6.3 | -22.2 | -5.3
CO[C@@H]1CN(C)C(=O)c2ccc(NS(C)(=O)=O)cc2OC[C@@H](C)N(Cc2ccccc2)C[C@@H]1C | -2.7 | -5.3 | 1.5
Cn1cnc(CCNC(=O)C[C@@H]2CC[C@H]3[C@@H](COC[C@@H](O)CN3C(=O)Nc3ccc(C(F)(F)F)cc3)O2)c1 | -57.9 | -77.0 | -15.6
COc1ccc([C@H]2C[C@H](O)[C@@H](n3cc(COC(=O)c4ccccc4)nn3)CN2Cc2cccs2)cc1 | 2.3 | 4.1 | 7.3
COc1ccc(-n2c(SCC(=O)Nc3cc(C)on3)nc3c(c2=O)SC(C)C3)cc1 (stereo unspecified) | 4.6 | 5.5 | -0.4
C[C@@H]1CN([C@H](C)CO)C(=O)c2cccc(NC(=O)C3CCCCC3)c2O[C@@H]1CN(C)S(=O)(=O)c1ccc(Cl)cc1 | -2.5 | -7.3 | -2.2
CO[C@H]1CN(C)C(=O)c2ccc(NS(C)(=O)=O)cc2OC[C@@H](C)N(CC2CCCCC2)C[C@H]1C | 2.6 | 3.4 | -3.6

Screening results deposited in PubChem by Broad Institute.
